# Source: PubChem BioAssay
# eIF4H inh = human eIF4H binding inhibitors, primary screen, translation initiation inhibitor project, biochemical, uHTS, fluorescence polarization. eIF4H fluorescence polarization binding assay. Eukaryotic translation initiation factor 4H (Homo sapiens), Q15056. actives 0.94% (n = 290,000). inhibition, % at 35 µM;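 active means 50% or more with normal probe brightness, or confirmed in later tests; inconclusive means above 50% with abnormal brightness, or retests that disagree; inactive means below 50% or failed in later tests; about a fifth of its hits are not listed in these tables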;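 further: calls also rest on retests at 20 µM and on dose response follow-up; 0% = protein and probe with vehicle and 100% = probe without protein; strong numbers were not always called active; many hits fall short of the cut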
# UUG fidelity = modulators of yeast start codon fidelity, primary screen, whole organism, S. cerevisiae, single point, plate reader. S. cerevisiae UUG-firefly luciferase reporter, luminescence/redox ratio. activity score, % at 18.7 µM. actives 0.13% (n = 350,000). AID 602363, 2012;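 active means replicate mean at a twofold rise or more, about +100% in these data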;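 further: firefly luciferase made from a UUG start codon reports start codon fidelity; reporter light over untreated wells divided by growth signal over untreated wells; some hits fall short of that in this replicate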
# Env fusion inh = inhibitors of HIV-1 Env-driven cell-cell fusion, primary screen, HeLa-JRFL effector, CEM21 target cells, luciferase. AID 651610, 2012. actives 1.1% (n = 360,000). inhibition, % at 12.3 µM;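 active means mean replicate inhibition score of at least 50 and every replicate individually at or above 50; inconclusive means only one of the two criteria met; inactive means mean below 50 and not all replicates reaching 50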;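 further: 0% = plate neutral controls and 100% = maraviroc near 300 nM; one replicate is shown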
# MT1-MMP act inh = blockers of MT1-MMP proenzyme processing, primary screen, HT1080 RFP-PRO-GFP cells, GFP/RFP fluorescence | Matrix metalloproteinase-14 (Homo sapiens), P50281 | GFP/RFP ratio fluorescence, overnight; percent of plate control window, DMSO zero | GFP/RFP ratio change, % at 20 µM | actives 0.061% (n = 360,000);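 active means GFP/RFP ratio change of at least 30% with cell ATP level not reduced by more than half and red fluorescence within 50% of control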; further: strong numbers were not always called active
#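 Assay system: HT1080 RFP-PRO-GFP cells | Dosing: 20 µM single dose, 1% DMSO | Incubation: Cells overnight before dosing, compound overnight, 37 °C, 5% CO2 | Evaluation: GFP/RFP fluorescence ratio | Control set: DMSO-only wells and HT1080 RFP-L50D-GFP cell wells as references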
# CSC inhib = cancer stem cell viability inhibitors, primary screen, luminescence. actives 1.1% (n = 300,000). inhibition, % at 7.5 µM. AID 2717, 2010. cancer stem cell-like cells viability;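 active means mean at 75% or more and at least half the replicates too; inconclusive means mean and replicates disagree; tested in HMLE shEcad cells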;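 further: 0% = median of negative and 100% = median of positive control wells; the first replicate is given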
# PABP polyA inh = PABP poly(A) RNA binding inhibitors, primary screen, biochemical, fluorescence polarization, uHTS | actives 1% (n = 290,000) | inhibition, % at 35 µM | Polyadenylate-binding protein 1 (Homo sapiens), P11940;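 active means 50% or more with normal probe brightness, or confirmed in later tests; inconclusive means above 50% with abnormal brightness, or retests that disagree; inactive means below 50% or failed in later tests; about a fifth of its hits are not listed in these tables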;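 further: calls also rest on retests at 20 µM and on dose response follow-up; controls were probe without protein and protein plus probe with vehicle; some compounds called inactive have numbers as strong as hits; many hits fall short of the cut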
# Target sequence (P11940 whole entry, looked up): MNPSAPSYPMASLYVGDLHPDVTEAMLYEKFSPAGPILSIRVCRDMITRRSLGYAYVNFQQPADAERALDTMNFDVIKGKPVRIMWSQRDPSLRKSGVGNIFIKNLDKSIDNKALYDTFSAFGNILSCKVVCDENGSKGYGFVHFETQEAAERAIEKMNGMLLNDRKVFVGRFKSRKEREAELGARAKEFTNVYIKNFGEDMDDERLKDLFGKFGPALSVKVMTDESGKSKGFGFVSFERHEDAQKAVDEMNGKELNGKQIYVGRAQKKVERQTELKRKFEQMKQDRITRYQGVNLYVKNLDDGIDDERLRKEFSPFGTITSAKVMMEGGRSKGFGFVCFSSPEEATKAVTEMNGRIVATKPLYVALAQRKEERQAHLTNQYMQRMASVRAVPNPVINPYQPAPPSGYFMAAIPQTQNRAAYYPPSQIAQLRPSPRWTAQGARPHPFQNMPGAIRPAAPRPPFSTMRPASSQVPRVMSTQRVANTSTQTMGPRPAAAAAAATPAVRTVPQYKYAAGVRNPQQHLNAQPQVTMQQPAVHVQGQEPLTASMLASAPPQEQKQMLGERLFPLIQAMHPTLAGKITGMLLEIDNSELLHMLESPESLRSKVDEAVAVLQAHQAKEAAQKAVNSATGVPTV
# Rce1 inhib = yeast Rce1p protease inhibitors, primary screen, biochemical, fluorescence, cell-free homogeneous; actives 0.27% (n = 290,000); calls only; AID 2563, 2010; yeast membranes, quenched prenylated peptide cleavage fluorescence;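 active means fall in fluorescence gain of 50% or more versus controls, with final raw signal at or below 3038400; inconclusive means same 50% fall but final raw signal above 3038400; inactive means fall in fluorescence gain under 50%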;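 further: plate controls were neutral control wells for no effect and wells lacking membranes for full effect; tested at 10 µM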
# Target sequence (Q03530 whole entry, looked up): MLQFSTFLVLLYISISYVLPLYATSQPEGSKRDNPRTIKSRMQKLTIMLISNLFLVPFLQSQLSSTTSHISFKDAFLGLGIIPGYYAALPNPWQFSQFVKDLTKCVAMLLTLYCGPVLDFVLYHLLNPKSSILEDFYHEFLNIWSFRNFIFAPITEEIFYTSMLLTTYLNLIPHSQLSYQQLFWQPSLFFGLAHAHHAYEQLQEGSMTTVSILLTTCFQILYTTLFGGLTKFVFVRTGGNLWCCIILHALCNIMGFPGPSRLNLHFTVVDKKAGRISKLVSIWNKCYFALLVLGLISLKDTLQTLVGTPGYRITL
# eIF4H inh retest = further read-out of eIF4H inh, marked with its call; inhibition, %; compound at 20 µM; confirmation average;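 mean of two retest wells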
# PABP polyA inh retest = also measured in PABP polyA inh; calls as there; inhibition, %; compound at 20 µM; confirmation repeats;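 mean of two retest wells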
# MT1-MMP act inh RFP = further read-out of MT1-MMP act inh, marked with its call; RFP signal change, %; measured here: RFP expression control read;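 0 = vehicle wells; hits needed this value within 50% of zero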
# * marks the source's active call; other numbers are inactive results; i = inactive; ? = inconclusive; . = not tested or not shown. Random draw from the library; any-hit rate near 2.9%.
# A first look:
SMILES,eIF4H inh,UUG fidelity,Env fusion inh,MT1-MMP act inh,MT1-MMP act inh RFP,CSC inhib,PABP polyA inh,Rce1 inhib,others
CCOc1ccc(Cl)cc1S(=O)(=O)N1CCCC1,-9,1,39,3,6,-11,-8,i,
CCOC(=O)c1c(N)c2cc([N+](=O)[O-])cnc2n1C,8,-2,?,1,-6,12,5,i,
COc1cc(OC)cc(C(=O)NNC(=S)Nc2ccccc2OC)c1,1,.,7,1,-4,-12,7,i,
COC(=O)NNC(=O)C1CCC(C)CC1 (configuration not stated),-6,.,.,0,5,-7,12,i,
CCOC(=O)Cn1ncc2c3ccccc3n(CC(=O)OCC)c2c1=O,2,-6,13,.,.,-25,-11,i,
COc1cccc(CNC(=S)Nc2ccc3c(c2)c(=O)n(C)n3Cc2ccccc2)c1,.,-21,-34,4,-1,.,.,.,

# The listing, repeating the preview:
SMILES,eIF4H inh,UUG fidelity,Env fusion inh,MT1-MMP act inh,MT1-MMP act inh RFP,CSC inhib,PABP polyA inh,Rce1 inhib,others
CCOc1ccc(Cl)cc1S(=O)(=O)N1CCCC1,-9,1,39,3,6,-11,-8,i,
CCOC(=O)c1c(N)c2cc([N+](=O)[O-])cnc2n1C,8,-2,?,1,-6,12,5,i,
COc1cc(OC)cc(C(=O)NNC(=S)Nc2ccccc2OC)c1,1,.,7,1,-4,-12,7,i,
COC(=O)NNC(=O)C1CCC(C)CC1 (configuration not stated),-6,.,.,0,5,-7,12,i,
CCOC(=O)Cn1ncc2c3ccccc3n(CC(=O)OCC)c2c1=O,2,-6,13,.,.,-25,-11,i,
COc1cccc(CNC(=S)Nc2ccc3c(c2)c(=O)n(C)n3Cc2ccccc2)c1,.,-21,-34,4,-1,.,.,.,
Cc1ccc(Cl)cc1-n1c(=O)cc(N2CC(C)OC(C)C2)[nH]c1=O (configuration not stated),4,11,1,-2,1,-2,10,i,
CCN1CCN(C(C(=O)NC2CCCCC2)C2CC2)CC1 (configuration not stated),.,-10,9,0,3,.,.,.,
CCN(CC)C(=O)COCc1cc(-c2ccc3c(c2)OCO3)on1,-6,0,-11,2,0,-19,10,i,
COC(=O)C1=NN(c2ccc(OC)cc2)C2C(=O)N(c3ccccc3OC)C(=O)C12 (configuration not stated),-5,-17,1,0,3,-16,4,i,
Cc1ccccc1CNC(=O)Nc1cccs1,3,-19,.,0,4,4,7,.,
O=C1C(=O)N(CCCN2CCOCC2)C(c2ccc(F)cc2)/C1=C(\O)c1ccc2c(c1)OCCO2 (configuration not stated),-13,-3,-9,1,0,5,4,i,
CN1C(=O)N(C)C2(C)CC1(C)N(C)C(=O)N2C,5,-4,6,2,9,-4,-11,i,
COc1ccc(N(C(=O)c2ccco2)S(=O)(=O)c2ccc(F)cc2)cc1,4,-6,-107,2,5,-2,-4,i,
O=C(N/N=C/c1ccccc1)c1ccc(OCc2ccccc2)cc1,-12,.,2,10,4,.,-4,i,
CC/C(=N\NC(=S)Nc1cc(C)ccc1C)c1ccc(OC(F)F)cc1,-8,.,-4,5,4,26,2,i,
COc1cccc(CN2CCNC(=O)C2CC(=O)NCCCC2CCCC2)c1OC (configuration not stated),-4,-17,.,1,5,-11,-12,i,
COC(=O)COc1ccc(/C=C2\SC(=O)N(CC(=O)Nc3ccccc3F)C2=O)cc1,2,-7,-11,-2,0,.,6,i,
O=C(CCN1C(=O)S/C(=C\C=C\c2ccccc2)C1=O)Nc1ccc(O)cc1,-12,-19,-129,-10,-13,-9,-10,i,
O=C(Cc1cccs1)NNC(=O)C12CC3CC(CC(C3)C1)C2,6,.,9,2,2,-6,5,i,
Cc1ccc(/C(COc2ccccc2O)=N\O)cc1,-2,-8,1,-1,-3,15,-4,i,
CN(C(=S)NC1=CCS(=O)(=O)C1)C1CCCCC1,14,-7,-2,0,1,8,6,i,
CC(OC(=O)C1CC1)C(=O)Nc1ncc(Cl)cc1Cl (configuration not stated),.,-7,.,1,4,-20,.,.,
O=C(CCCn1nnnc1CN1CCOCC1)N1CCC(c2ccccc2Cl)C1 (configuration not stated),5,-21,-7,-1,0,7,2,i,
CC(=O)c1ccc(NC(=S)N2CCCC2)cc1,-7,-26,-18,4,5,8,-6,i,

# (next part)
SMILES,eIF4H inh,UUG fidelity,Env fusion inh,MT1-MMP act inh,MT1-MMP act inh RFP,CSC inhib,PABP polyA inh,Rce1 inhib,others
O=C(c1cccc(Cl)c1)N1CCN(c2ncccn2)CC1,-13,-2,-21,-1,-1,3,-12,i,
COc1c2c(nc3occc13)C(CC=C(C)C)(OC)C(=O)C=C2 (configuration not stated),-7,-16,8,-1,1,-8,-8,i,
CC(C)n1c(C(O)c2ccc3c(c2)OCO3)nc2ccccc21 (configuration not stated),-7,-9,.,1,1,-12,1,i,
CCOc1ccc(C(C)NC(=O)C2CCCC2)cc1 (configuration not stated),-4,-18,10,3,1,2,-11,i,
CC(C)C1N(C(=O)CN2CCCCC2)CCN1S(=O)(=O)c1ccccc1 (configuration not stated),1,1,19,-2,3,-6,9,i,
COC(=O)C(C)Sc1nc2c(c(=O)[nH]c(=O)n2C)n1CCC(C)C (configuration not stated),0,.,.,3,4,-7,0,i,
CC(C)CCOc1ccc(C(=O)N2CCCC2C(=O)O)cc1 (configuration not stated),-6,.,1,-2,-1,-10,18,i,
Cc1noc(C)c1CSCC(=O)OCc1nc2ccccc2c(=O)n1CC#N,2,-11,0,-6,1,-5,18,i,
CC(C)N1CCN(Cc2ccccc2-c2ccco2)CC1CCO (configuration not stated),-3,.,-7,3,1,7,1,i,
COCCC(=O)N1CCC(Oc2ccc(C(=O)N3CCCC(OC)C3)cc2)CC1 (configuration not stated),-3,11,6,-6,-2,.,8,i,
CCc1nc2ccc(C(=O)Nc3cccc(OCC(=O)N(C)C)c3)cn2c1N(CCC(C)C)CCN(C)C,.,-14,-275,2,3,.,.,.,
CCC(C)[C@H](NC(=O)OC(C)(C)C)c1nnc(SCc2c(C)[nH]c(=O)[nH]c2=O)o1 (some centres not stated),-7,-5,.,2,2,-4,1,i,
CCOc1ccc(NC2=NCC(=O)N2Cc2cccs2)cc1,19,-8,.,-3,0,21,19,i,
CC(NC(=O)C1CCCN1S(=O)(=O)c1ccc2c(c1)n(C)c(=O)c(=O)n2C)c1ccccc1 (configuration not stated),-9,3,4,2,1,1,-3,i,
O=c1cc(C(F)(F)F)[nH]c2ccc(OC(F)(F)F)cc12,-14,-13,1,22,-26,45,6,i,
O=C(O)CSc1c2ccccc2cc2ccccc12,-1,-21,-12,-1,0,6,20,i,
O=C(CCCCCn1c(=S)[nH]c2cc3c(cc2c1=O)OCO3)N1CCN(c2ccccc2)CC1,-14,-21,17,4,1,1,0,i,
Cc1ccccc1NC(=O)OCc1cccnc1Sc1ccc(Cl)cc1,0,-19,.,-1,-5,7,4,i,
CC(=O)c1c(C(C)=O)c(C)n(C(c2ccccc2)c2ccccc2)c1C,-8,.,32,-5,-3,6,-4,i,
Clc1ccc(SCc2cc(-c3ccccc3)on2)cc1,-2,-6,.,2,5,3,-2,i,
O=C(O)c1ccc(NCc2ccc(Br)cc2)cc1,0,.,-22,3,4,-3,12,i,
COc1ccc(C2=NS(=O)(=O)N(C)C(C(=O)NC(C)c3ccccc3)=C2)cc1OC (configuration not stated),-8,8,-36,-1,0,1,0,i,
CSc1nnc(-c2cc[n+](C)cc2)n1CCO,2,.,9,-1,2,-2,-5,i,
Cc1cccc(C(=O)NCCCN2CCCC2=O)c1,1,-18,.,-3,-3,-3,-1,i,
O=C(Cn1c(C(F)(F)F)nc2ccccc21)NCCCN1CCOCC1,-3,-21,-28,4,9,-6,-6,i,

# Reprinted at random: 7 entries already listed, in no set order.
SMILES,eIF4H inh,UUG fidelity,Env fusion inh,MT1-MMP act inh,MT1-MMP act inh RFP,CSC inhib,PABP polyA inh,Rce1 inhib,others
CC(C)N1CCN(Cc2ccccc2-c2ccco2)CC1CCO (configuration not stated),-3,.,-7,3,1,7,1,i,
COc1ccc(C2=NS(=O)(=O)N(C)C(C(=O)NC(C)c3ccccc3)=C2)cc1OC (configuration not stated),-8,8,-36,-1,0,1,0,i,
CC(C)CCOc1ccc(C(=O)N2CCCC2C(=O)O)cc1 (configuration not stated),-6,.,1,-2,-1,-10,18,i,
Cc1cccc(C(=O)NCCCN2CCCC2=O)c1,1,-18,.,-3,-3,-3,-1,i,
Cc1noc(C)c1CSCC(=O)OCc1nc2ccccc2c(=O)n1CC#N,2,-11,0,-6,1,-5,18,i,
CSc1nnc(-c2cc[n+](C)cc2)n1CCO,2,.,9,-1,2,-2,-5,i,
O=C(O)CSc1c2ccccc2cc2ccccc12,-1,-21,-12,-1,0,6,20,i,

# Carrying on.
SMILES,eIF4H inh,UUG fidelity,Env fusion inh,MT1-MMP act inh,MT1-MMP act inh RFP,CSC inhib,PABP polyA inh,Rce1 inhib,others
Nc1ccc(OCc2ccccc2)cc1[N+](=O)[O-],.,-12,-32,3,-1,.,.,.,
Cc1nn(S(=O)(=O)c2ccc(F)cc2)c(C)c1S(=O)(=O)N1CCCCC1,-12,-14,1,-1,0,-8,10,i,
CCN(CC)S(=O)(=O)c1cc(NC(=O)CCNC(=O)c2ccccc2Cl)ccc1C,8,.,26,6,3,.,1,i,
O=C(Nc1ccccc1N1CCOCC1)C1CCN(S(=O)(=O)c2ccccc2F)CC1,-10,0,.,-2,-2,-4,-10,i,
COc1cccc2c(=O)c3cccc(N)c3[nH]c12,94*,3,6,-6,0,-6,8.7*,i,eIF4H inh retest=86*;PABP polyA inh retest=76*
O=C(CN1C(=O)C2CCCCC2C1=O)OCc1nnc(-c2ccccc2)o1 (configuration not stated),-2,-3,9,-2,-1,-3,0,i,
COc1cc(CCC(=O)OCC(=O)NC2CCCC(C)C2C)cc(OC)c1OC (configuration not stated),-2,.,1,1,-1,-17,12,i,
COc1ccc(C2CC(=O)C(CS(=O)(=O)c3ccccc3)C(=O)C2)cc1 (configuration not stated),15,.,9,4,3,-2,2,i,
CCN1CCN(CC(=O)N2N=C(c3ccc(OC)cc3)CC2c2ccc(OC)cc2)C(=O)C1=O (configuration not stated),-6,.,7,-5,2,16,-9,i,
CCOC(=O)C(C)Oc1cccc2c(=O)n(CC(=O)NCCc3ccc(OC)c(OC)c3)ccc12 (configuration not stated),0,1,88*,0,-5,-1,-3,i,
c1ccc(CN2CCN(CCOCCOc3ccc4c(c3)CCC4)CC2)cc1,4,.,31,1,-5,-6,-8,i,
CCN=c1scc(-c2ccccc2)n1/N=C/c1ccccn1,1,.,.,-1,-11,29,-11,i,
CN(Cc1c(F)cccc1Cl)C(=O)CNC(=O)c1ccc2c(c1)OCO2,.,2,-18,-1,5,-2,.,i,
